Screening data from PubChem BioAssay.
VACV Venus inh – inhibitors of vaccinia virus (Venus reporter) | Vaccinia virus Venus reporter expression, fluorescence | Potency, µM (highest dose often 36.5 µM), without a hit: top-dose activity change, negative = inhibition, hits mostly inhibitors | AID 720580 | 330,000 compounds, 0.46% hits; active means well fitted inhibition curve with a large enough effect; inconclusive means small, poorly fitted or top-dose-only effect; inactive means no such curve, though single readings can be large or run the other way; tested in A549 cells; also: nearly all actives have a fitted effect of over 30% in size; inactives centre near -10
VACV mCherry inh – vaccinia inhibition (mCherry reporter); Vaccinia virus mCherry reporter infection, fluorescence; about a quarter of the inactives have no number; Potency, µM (titrated, usually from 36.5 µM), without a hit: at the top dose activity change, negative = inhibition, usual class: inhibitors; 310,000 compounds, 0.63% hits; active = well fitted inhibition curve with a large enough effect; inconclusive = small, poorly fitted or top-dose-only effect; inactive = no such curve, though single readings can be large or run the other way; tested in A549 cells; also: nearly all actives have a fitted effect of over 35% in size; inactives centre near -10
* = called active by the depositor; i = inactive; ? = inconclusive; . = not tested or not shown; & = joins results of further samples; [ ] = another dose, or the depositor's remark. % is scaled to controls: 0 for no effect and ±100 for the full control effect; potency is read from the fitted curve at half-maximal effect.

#	structure	VACV mCherry inh	VACV Venus inh
1	COc1ccc(CC(=O)Nc2ccccc2C(=O)N2CCCC2)cc1	-13.5%	0.2%
2	N#Cc1ccccc1OCC(=O)N1CCN(C(=O)c2ccco2)CC1	i	-11.1%
3	Cc1nc2ccccc2n1C1CCN(C(=O)Nc2ccccc2)CC1	i	-12.1%
4	COc1cccc(OC)c1OC(=O)/C=C/c1ccc(C)o1	-25.9%	-0.1%
5	CCOC(=O)CC1COCCN1Cc1cn(C)nc1-c1ccccc1F (configuration not stated)	-1.2%	-12.1%
6	NC(=O)C1CCN(c2nnnn2-c2ccccc2)CC1	.	-14.1%
7	O=c1[nH]c2ccccc2[n+]([O-])c1-c1ccccc1	2.7%	-4.4%
8	N/C(=N\NS(=O)(=O)c1ccccc1)c1ccccn1	?	-20.8%[7.34 µM]
9	COC(=O)/C(=C\C(=O)c1ccccc1)Nc1ccc(OC)cc1	-6.8%	-12.4%
10	COc1cc(C(=O)NCCOC(=O)c2cccc(N(C)C)c2)cc(OC)c1OC	i	-6.9%
11	CCCCn1c(-c2csc(C(C)C)c2)n[nH]c1=S	-16.0%	-14.9%
12	CCCCNC(=O)c1nc(-c2cc3ccccc3[nH]2)oc1-c1cccc(C(F)(F)F)c1	?	-2.1%
13	CC(=O)Nc1ccc(CN2CCN(Cc3ccc(F)c(F)c3)C(CCO)C2)cc1 (configuration not stated)	-27.3%	-4.8%
14	Cc1ccc(/C(N)=N/OC(=O)Cc2ccccc2)cc1	i	-4.9%
15	COc1ccc(Cc2nnc(SCC(=O)Nc3ccc(N4CCOCC4)cc3)n2C)cc1	-16.0%	3.0%
16	COc1ccc(OCC(=O)NC2CCCCCCC2)cc1	i	-18.1%
17	Cc1nc(NC(=O)CSc2nc3cccnc3n2Cc2ccccc2)sc1C	-20.8%	-11.4%
18	Cc1nn(-c2ccccc2)c(C)c1NC(=O)CCl	10µM*	?
19	CCOc1ccc(N2CC(NC(=O)Cc3ccccc3)CC2=O)cc1 (configuration not stated)	-10.8%	-10.7%
20	CCOc1ccc2nc(SCC(=O)N(CC(C)C)c3c(N)n(CC(C)C)c(=O)[nH]c3=O)[nH]c2c1	i	-12.3%
21	COC(=O)c1c(NC(=O)COC(=O)c2ccc(NC(=O)CC#N)cc2)sc2c1CCCCC2	-10.7%	-6.9%
22	COc1ccc(C2CC(c3ccccc3)=NN2C(=O)COC(=O)COc2ccccc2)cc1 (configuration not stated)	i	-9.9%
23	Cc1cnc2cc([N+](=O)[O-])ccc2n1	i	-1.5%
24	CCCCc1c(O)nc(SCC(=O)Nc2ccc(OC)cc2)n(-c2ccc(C)c(C)c2)c1=O	5.0%	-4.0%
25	COc1ccc(C(=O)/C=C/c2cn(CC(O)CN3CCN(C)CC3)c3ccccc23)cc1OC (configuration not stated)	?	?
26	CC(C)CC(NC(N)=O)C(=O)OCC(=O)Nc1ccc(OC(F)F)cc1 (configuration not stated)	-9.7%	-11.0%
27	Cc1ccc(S(=O)(=O)/N=C/c2ccc(N(C)C)cc2)cc1	i	-2.8%
28	CCCCN(CCCN)c1ccc(Br)cn1	-1.2%	-21.2%
29	COc1ccc(-c2cc(=O)oc3cc(OC(C)C(=O)NCc4ccccn4)ccc23)cc1 (configuration not stated)	0.3%	6.9%
30	CCC(=O)N1c2ccccc2CC1C(=O)NCc1ccccc1Cl (configuration not stated)	1.7%	6.9%

Single records, from the list above. Screens in order: VACV mCherry inh	VACV Venus inh
`COC(=O)c1c(NC(=O)COC(=O)c2ccc(NC(=O)CC#N)cc2)sc2c1CCCCC2` across the screens: -10.7%	-6.9%
`CCCCc1c(O)nc(SCC(=O)Nc2ccc(OC)cc2)n(-c2ccc(C)c(C)c2)c1=O` across the screens: 5.0%	-4.0%
`COC(=O)/C(=C\C(=O)c1ccccc1)Nc1ccc(OC)cc1` across the screens: -6.8%	-12.4%
`CCC(=O)N1c2ccccc2CC1C(=O)NCc1ccccc1Cl` (configuration not stated) across the screens: 1.7%	6.9%

Remaining list, next part:
#	structure	VACV mCherry inh	VACV Venus inh
31	O=C1[C@@H]2[C@@H](CN3CN(c4ccccc4)N=C(c4ccccc4)[C@@]23c2ccccc2)C(=O)N1c1ccccc1	i	-7.3%
32	Cc1ccc2nc(SCc3nnc(-c4ccccc4)o3)[nH]c2c1	-26.3%	-17.1%
33	Cc1cc(C)cc(-n2ccnc2SCC(=O)Nc2nc3ccccc3s2)c1	-10.7%	-4.3%
34	O=C(c1ccccc1)C1CN(c2ccccc2)CC1c1ccc(Cl)cc1 (configuration not stated)	-15.5%	-10.2%
35	CC(C)c1cccc(-c2ccc3c(c2)S(=O)(=O)c2cccc(C(=O)NCc4ccco4)c2C3=O)c1	i	-14.0%
36	CC(=O)N1CCCc2cc(S(=O)(=O)N3CCCC(C(=O)Nc4ccc(C)c(C)c4)C3)ccc21 (configuration not stated)	-6.8%	-7.9%
37	COC(=O)c1ccc(Nc2nc(C)cc(=O)[nH]2)cc1	-3.7%	8.1%
38	CCCCn1c(N)c(N(CC(C)C)C(=O)C2CCN(C(=O)c3ccc(F)cc3)CC2)c(=O)[nH]c1=O	-7.2%	4.7%
39	Cc1ccc(C)c(NC(=O)C2CCCN(S(=O)(=O)c3c(C)nn(C)c3C)C2)c1 (configuration not stated)	-19.8%	-18.7%
40	Cc1ccc(S(=O)(=O)N2CCN(CC(=O)N/N=C/C=C/c3ccccc3)CC2)cc1	-0.1%	-14.6%
41	CCCCCC(=O)NNC(=S)NC(=O)c1cccc([N+](=O)[O-])c1	i	-15.5%
42	Cc1cc2c(n1-c1ccc(C(=O)NCc3ccccc3Cl)cc1)CCCC2	-23.0%	-9.7%
43	O=C(Cc1ccc(S(=O)(=O)N2CCCCC2)s1)Nc1ccc(F)cc1F	-10.6%	-5.3%
44	Cc1cccc(OCc2nnc(SCC(=O)Nc3ncc(C)s3)o2)c1	-5.8%	-4.1%
45	CSc1ccc(CNC(=O)Cc2csc3ccccc23)cc1	-1.2%	-1.1%
46	Cc1ccc(NC(=O)COC(=O)Cn2cnc3ccccc32)cc1S(=O)(=O)N(C)C	i	-1.0%
47	CC1Cc2cc(S(=O)(=O)CCC(=O)Nc3ccccc3F)ccc2N1C(=O)C1CC1 (configuration not stated)	-19.3%	-18.3%
48	O=C(Nc1nc(-c2ccc(Cl)s2)cs1)c1ccncc1	-8.0%	-5.8%
49	COc1ccc(S(=O)(=O)N2CCN(C(=O)c3ccc(COc4ccccc4)o3)CC2)cc1	?	?
50	COc1ccc(CCNS(=O)(=O)c2ccc3c(c2)CCN3C(=O)C2CC2)cc1OC	-20.0%	-5.3%
51	CCC(=O)c1coc2ccc(O)cc12	-11.5%	0.0%
52	Cc1ccccc1NC(=O)CSc1nnc(-c2ccoc2C)n1CCc1ccccc1	?	-18.8%
53	NS(=O)(=O)c1ccc(CCNC(=O)COC(=O)CCN2C(=O)C3CC=CCC3C2=O)cc1 (configuration not stated)	i	-13.1%
54	CC(C)(C)n1nnnc1C(c1cccnc1)N1CCN(c2ccccc2)CC1 (configuration not stated)	.	-25.3%
55	O=C(CCN1C(=O)C2CCCCC2C1=O)N1CCN(S(=O)(=O)c2ccccc2)CC1 (configuration not stated)	-11.5%	-9.8%
56	CCc1ccc(NC2CC(=O)N(CCc3ccc(OC)c(OC)c3)C2=O)cc1 (configuration not stated)	-4.6%	-7.9%
57	CC(C)c1ccc(OCC(=O)NNC(=S)NC(=O)c2cccs2)c(Br)c1	-13.6%	-11.7%
58	O=S(=O)(NCC(c1cccnc1)N1CCN(Cc2ccccc2)CC1)c1ccccc1 (configuration not stated)	i	-29.0%
59	C(=N\c1c(-c2ccccc2)nc2n1CCS2)/c1ccccc1	-15.5%	1.6%
60	CCN(CC)S(=O)(=O)c1ccc(NS(=O)(=O)CC23CCC(CC2=O)C3(C)C)cc1 (configuration not stated)	i	-27.9%
61	COCCNc1ccc([N+](=O)[O-])cc1C(=O)NC1CCCc2ccccc21 (configuration not stated)	-15.0%	2.2%
62	CCC(=O)N1CCc2cc(Br)cc(S(=O)(=O)CCC(=O)Nc3ccccc3C)c21	-11.8%	-12.0%
63	Cc1ccccc1NC(=O)c1cccc(N2C(=O)C3CCCCC3C2=O)c1 (configuration not stated)	-8.1%	-7.8%
64	O=C(Nc1ccsc1C(=O)O)c1ccccc1Cl	i	-6.3%
65	Fc1ccc(-c2nc3c4ccccc4ccn3c2Cc2ccsc2)cc1	i	3.7%
66	NNC(=O)COc1ccc2oc3c(c2c1)CCCC3	2.2%	-10.0%
67	O=C(c1ccc(S(=O)(=O)c2ccc(F)cc2)c([N+](=O)[O-])c1)N1CCCCCC1	-18.7%	?
68	CCOC(=O)C1CCCN(CC(=O)Nc2c(C(=O)OC)[nH]c3ccc(Br)cc23)C1 (configuration not stated)	.	-20.2%
69	CCc1ccccc1NC(=O)CN(C)C(=O)CSc1nn(-c2ccc(F)cc2)c(=S)s1	-15.6%	-12.9%
70	CCCN(CCC)S(=O)(=O)c1cc(Br)cc2c1N(C(=O)CC)CC2	?	-25.1%

In the list so far, four have a nitro group on carbon.
#	structure	VACV mCherry inh	VACV Venus inh
23	Cc1cnc2cc([N+](=O)[O-])ccc2n1	i	-1.5%
41	CCCCCC(=O)NNC(=S)NC(=O)c1cccc([N+](=O)[O-])c1	i	-15.5%
61	COCCNc1ccc([N+](=O)[O-])cc1C(=O)NC1CCCc2ccccc21 (configuration not stated)	-15.0%	2.2%
67	O=C(c1ccc(S(=O)(=O)c2ccc(F)cc2)c([N+](=O)[O-])c1)N1CCCCCC1	-18.7%	?

The results go on:
#	structure	VACV mCherry inh	VACV Venus inh
71	CCN(CC)S(=O)(=O)c1cc(C(=O)Nc2cc(C)on2)ccc1Cl	-14.6%	0.6%
72	CCC(CC)NC(=O)c1ccc(Cl)cc1	i	-7.4%
73	CCOc1ccccc1N(CC(=O)NC1CCCC1)C(=O)CNC(=O)c1cccs1	3.9%	2.8%
74	O=C(NCc1ccccc1)c1ccc2nnsc2c1	-1.3%	-7.1%
75	COc1ccc(-n2cc(C#N)c(=O)n(Cc3ccc(F)cc3)c2=O)cc1	-23.4%	-16.9%
76	COc1ccc(CNC(=O)CN2C(=O)NC(C)(c3ccc(C(C)(C)C)cc3)C2=O)cc1 (configuration not stated)	?	-22.0%
77	CCNC(=S)Nc1ccc(Cl)cc1	-22.2%	-4.5%
78	Cc1ccc(C(=O)N/N=C(\CC(C)C)c2ccccc2)cc1	-10.7%	-7.8%
79	CCOC(=O)/C(=C\c1ccc(Cl)cc1)c1nc2sc(C)c(C)c2c(=O)[nH]1	?	?
80	Cc1nnsc1C(=O)Oc1ccc(C#N)cc1	-3.3%	-1.6%
81	COc1cccc(C2CC(c3ccc(C)cc3)Nc3nc(N)nn32)c1 (configuration not stated)	-1.8%	-0.8%
82	O=C1NC[C@H](CCCCN2CCN(CCc3ccccc3)C(=O)C2=O)N(Cc2ccccc2)C1=O	0.4%	-8.0%
83	O=c1cc(-c2ccccc2)oc2c1CCCC2	-5.5%	-6.0%
84	C=CCOc1c(CNC2CCCC2)cc(Cl)cc1OC	?	-12.8%
85	CCOC(=O)c1ccc(NS(=O)(=O)c2cc3c4c(c2)CCN4C(=O)CC3)cc1	-2.0%	-18.8%
86	COC(=O)COc1ccccc1C(=O)Nc1ccc(OC)cc1	-1.3%	1.5%
87	Cc1nonc1NC(=O)c1ccc(Cl)c(S(=O)(=O)N2CCCCC2)c1	-12.1%	?
88	CC(C)C[C@H](NC(=O)NCc1ccc(Cl)cc1)C(=O)O	.	4.8%
89	CC(C)C(c1nnnn1Cc1cccs1)N1CCN(C(=O)c2ccco2)CC1 (configuration not stated)	i	-13.9%
90	COc1ccc(NC(=S)NC23CN4CN(CN(C4)C2)C3)c(OC)c1	-10.2%	-6.1%
91	CN1C(=O)/C(=C2\SC(N)=NC2=O)c2ccccc21	-10.4%	-9.1%
92	CNC(=O)c1ccc(Nc2nnc(-c3ccc(C(N)=O)cc3)c3ccccc23)cc1	-7.3%	-20.6%
93	COc1cccc(/C=N/Nc2nn3cnnc3c3ccccc23)c1O	-25.0%	-23.9%
94	Cc1cc(=O)[nH]c(SCC(=O)Nc2ccc(C(=O)O)cc2)n1	i	-8.3%
95	O=C(Cc1cscn1)c1ccc(O)cc1O	.	8.2%
96	CCC(C(=O)NC1CCCCC1)n1c(SCc2cccc(C)c2)nc2ccncc21 (configuration not stated)	-7.6%&-11.7%	?
97	CCN1CCN(C(=O)COc2ccc(S(=O)(=O)N3CCOCC3)cc2Cl)CC1	-18.9%	3.8%
98	NS(=O)(=O)c1ccc(NC(=O)C2C3C=CC(C3)C2C(=O)O)cc1 (configuration not stated)	1.4%	-11.5%
99	COc1ccc(-c2csc(NC(=O)CC(C)C)n2)cc1	-11.4%	-18.9%
100	O=C(COC(=O)CC12CC3CC(CC(Br)(C3)C1)C2)NC(=O)NCc1ccco1	-21.2%	-6.1%
101	CC1(C)Cc2c(sc(NC(=O)c3ccccc3Cl)c2C(=O)O)CO1	-9.1%	-7.1%
102	CCC(C)NC(=O)Cn1c(=O)sc2ccccc21 (configuration not stated)	i	15.9%
103	Cn1c(=O)cc(SCC(=O)NCC2CCCO2)c2ccc(Cl)cc21 (configuration not stated)	-12.2%	-9.3%
104	CCOc1ccc(C(=O)N2CCn3c2nc2ccccc23)cc1	9.7%	4.0%
105	Cc1ccccc1N(CC(N)=O)S(C)(=O)=O	-11.0%	-13.1%
